Yeast UUG start = modulators of start codon recognition fidelity in yeast; actives 0.13% (n = 350,000); activity score, % at 18.7 µM; S. cerevisiae UUG-firefly luciferase reporter, luminescence/redox ratio;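 active = replicate mean at a twofold rise or more, about +100% in these data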;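 also: firefly luciferase made from a UUG start codon reports start codon fidelity; reporter light over untreated wells divided by growth signal over untreated wells; some hits fall short of that in this replicate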
MT1-MMP act inh = MT1-MMP (human) activation inhibition. actives 0.061% (n = 360,000). HT1080 RFP-PRO-GFP cells, GFP/RFP ratio fluorescence, overnight; percent of plate control window, DMSO zero. GFP/RFP ratio change, % at 20 µM. P50281;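 active = GFP/RFP ratio change of at least 30% with cell ATP level not reduced by more than half and red fluorescence within 50% of control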; also: strong numbers were not always called active
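Test system: HT1080 cells expressing an RFP-PRO-GFP fluorescent reporter construct / Compound dosing: single-point 20 µM compound, 1% DMSO / Schedule: cells overnight before dosing, compound overnight, 37 °C, 5% CO2 / Evaluation: GFP/RFP fluorescence ratio / Control set: DMSO and RFP-L50D-GFP cell wells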
Env fusion inh = inhibitors of HIV Env-mediated cell fusion. HeLa-JRFL Env/CEM21 cell fusion, luciferase. inhibition, % at 12.3 µM. actives 1.1% (n = 360,000). AID 651610;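 active = mean replicate inhibition score of at least 50 and every replicate individually at or above 50; inconclusive = only one of the two criteria met; inactive = mean below 50 and not all replicates reaching 50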;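 also: 0% = plate neutral controls and 100% = maraviroc near 300 nM; one replicate is shown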
PABP polyA inh = PABP-poly(A) binding inhibition; actives 1% (n = 290,000); PABP-poly(A) RNA binding, fluorescence polarization; inhibition, % at 35 µM;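 active = 50% or more with normal probe brightness, or confirmed in later tests; inconclusive = above 50% with abnormal brightness, or retests that disagree; inactive = below 50% or failed in later tests; about a fifth of its hits are not listed in these tables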;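 also: calls also rest on retests at 20 µM and on dose response follow-up; controls were probe without protein and protein plus probe with vehicle; some compounds called inactive have numbers as strong as hits; many hits fall short of the cut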
Target sequence (P11940 whole entry, looked up): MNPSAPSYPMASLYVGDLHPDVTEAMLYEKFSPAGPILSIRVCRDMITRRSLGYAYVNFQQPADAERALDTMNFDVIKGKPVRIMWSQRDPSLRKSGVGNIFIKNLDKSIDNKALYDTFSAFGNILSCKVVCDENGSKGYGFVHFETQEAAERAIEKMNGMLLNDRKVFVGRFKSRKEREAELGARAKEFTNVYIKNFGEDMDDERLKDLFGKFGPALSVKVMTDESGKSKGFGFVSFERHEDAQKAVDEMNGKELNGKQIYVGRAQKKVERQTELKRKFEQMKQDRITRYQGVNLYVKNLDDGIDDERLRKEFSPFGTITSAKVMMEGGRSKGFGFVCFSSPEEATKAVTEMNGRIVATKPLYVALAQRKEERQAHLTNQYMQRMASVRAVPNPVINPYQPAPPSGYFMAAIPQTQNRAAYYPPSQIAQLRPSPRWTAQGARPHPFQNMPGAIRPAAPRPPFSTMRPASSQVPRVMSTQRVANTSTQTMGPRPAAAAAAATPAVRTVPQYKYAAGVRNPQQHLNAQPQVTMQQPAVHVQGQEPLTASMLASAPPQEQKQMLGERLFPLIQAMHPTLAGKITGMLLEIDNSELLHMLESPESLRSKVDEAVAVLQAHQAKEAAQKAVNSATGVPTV
Rce1 inh = yeast Ras-converting enzyme inhibition; Q03530; yeast membranes, quenched prenylated peptide cleavage fluorescence; calls only; actives 0.27% (n = 290,000);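 active = fall in fluorescence gain of 50% or more versus controls, with final raw signal at or below 3038400; inconclusive = same 50% fall but final raw signal above 3038400; inactive = fall in fluorescence gain under 50%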;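 also: plate controls were neutral control wells for no effect and wells lacking membranes for full effect; tested at 10 µM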
Target sequence (Q03530 whole entry, looked up): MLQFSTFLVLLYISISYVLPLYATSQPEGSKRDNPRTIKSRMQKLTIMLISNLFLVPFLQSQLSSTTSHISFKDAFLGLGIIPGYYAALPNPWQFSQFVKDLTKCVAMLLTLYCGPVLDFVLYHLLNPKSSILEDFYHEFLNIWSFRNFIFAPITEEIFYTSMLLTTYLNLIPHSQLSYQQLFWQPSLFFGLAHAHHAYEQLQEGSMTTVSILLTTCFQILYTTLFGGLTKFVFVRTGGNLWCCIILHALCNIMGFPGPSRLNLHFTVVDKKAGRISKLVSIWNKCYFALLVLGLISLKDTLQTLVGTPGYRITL
eIF4H FP inh = inhibitors of RNA binding by human eIF4H; eIF4H fluorescence polarization binding assay; inhibition, % at 35 µM; actives 0.94% (n = 290,000);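 active = 50% or more with normal probe brightness, or confirmed in later tests; inconclusive = above 50% with abnormal brightness, or retests that disagree; inactive = below 50% or failed in later tests; about a fifth of its hits are not listed in these tables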;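 also: calls also rest on retests at 20 µM and on dose response follow-up; 0% = protein and probe with vehicle and 100% = probe without protein; strong numbers were not always called active; many hits fall short of the cut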
CSC inhib = blocks cancer stem cells | cancer stem cell-like cells viability, luminescence | AID 2717 | actives 1.1% (n = 300,000) | inhibition, % at 7.5 µM;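 active = mean at 75% or more and at least half the replicates too; inconclusive = mean and replicates disagree; tested in HMLE shEcad cells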;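 also: 0% = median of negative and 100% = median of positive control wells; the first replicate is given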
MT1-MMP act inh RFP = recorded beside MT1-MMP act inh, whose call it bears; RFP signal change, %; measured here: RFP expression control read;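 0 = vehicle wells; hits needed this value within 50% of zero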
* hit, by the source's call; i = inactive; u = inconclusive; x = no result given.

SMILES | Yeast UUG start | MT1-MMP act inh | MT1-MMP act inh RFP | Env fusion inh | PABP polyA inh | Rce1 inh | eIF4H FP inh | CSC inhib
CC(CCc1ccccc1)NC(=O)/C=C/c1ccccc1 (stereo unspecified) | -8 | 2 | -1 | x | 8 | i | -2 | -3
CCn1cc(S(=O)(=O)Nc2nc3ccc(OC)cc3s2)cn1 | -18 | 3 | 6 | 4 | -2 | i | -7 | -27
COc1cc(N)c(Cl)cc1C(=O)OCC(=O)NCC1CCCCC1 | -7 | 3 | 4 | 7 | x | x | x | -3
CCCC(C)C(=O)Nc1ccccc1C(=O)OCC (stereo unspecified) | -15 | 3 | 3 | x | -12 | i | -4 | -9
Cc1cc(C)n(CC(O)COc2ccc(F)cc2)n1 (stereo unspecified) | -12 | 2 | 1 | -2 | -9 | i | -4 | -7
CCCn1c(C2CC(=O)N(c3ccc(C)cc3)C2)nc2ccccc21 (stereo unspecified) | -16 | -3 | -6 | -20 | -2 | i | -3 | -11
C=CCN1C(=O)c2ccc(C(=O)N3CCN(S(=O)(=O)c4ccccc4Br)CC3)cc2C1=O | x | 2 | 1 | 2 | x | x | x | -7
Cn1cnc(S(=O)(=O)Nc2ccccc2N2CCOCC2)c1 | -12 | 3 | 2 | 3 | 4 | i | 7 | 1
CN(Cc1cccc(F)c1)C(=O)c1ccccc1Sc1ccccc1C#N | -3 | 2 | -3 | 23 | 10 | i | 25 | 16
COc1cc(NC(=O)CCl)ccc(=O)c1 | -22 | 4 | 4 | -2 | x | x | x | x
O=C(Nc1ccccc1)[C@@H]1CCCN1S(=O)(=O)c1ccc(Cl)cc1 | -9 | -1 | -3 | 23 | x | x | x | -15
Cc1c(C)n2c(SCC(=O)N3CCN(c4ccccc4)CC3)nnc2[nH]c1=O | -16 | 2 | 5 | 3 | x | i | x | -13
CCn1c(N2CCN(S(=O)(=O)c3ccc(Cl)cc3)CC2)nc2ccccc21 | x | -13 | -24 | -3 | 4 | i | 0 | 6
c1ccc(OCCCn2nnc(-c3ccncc3)n2)cc1 | x | -2 | -4 | x | 1 | i | 14 | x
CC1(C)CC(=O)C2=C(C1)OC(N)=C(C#N)C2c1ccccc1 (stereo unspecified) | -3 | 4 | 8 | -84 | 11 | i | 14 | -13
O=C(CSc1nc2cc(C(F)(F)F)ccc2n1Cc1ccccc1)NC1CCS(=O)(=O)C1 (stereo unspecified) | x | 0 | 0 | x | -2 | i | -5 | 8
N#Cc1nc(-c2cccs2)oc1NCCCN1CCOCC1 | -16 | 9 | 3 | x | -8 | u | 3 | -12
CCOc1cc(/C=N/O)ccc1OCc1ccc(F)cc1 | -22 | -1 | 0 | -1 | -4 | i | 0 | 3
CCOC(=O)C1(CC2CC2)CCN(Cc2cc(Cl)c(O)c(OC)c2)CC1 | -6 | 5 | 9 | -20 | 0 | i | 2 | 19
O=C(Nc1ccc2oc(-c3ccccc3F)nc2c1)c1ccco1 | -8 | 1 | -2 | -107 | 10 | i | 3 | 1
Cc1nn2c(-c3ccc(Cl)cc3)ccnc2c1-c1ccccc1 | -10 | 7 | 2 | -69 | 12 | x | 5 | x
Cc1ccc(NC(=O)CN2C(=O)NC3(CCCC3)C2=O)c(Cl)c1 | 0 | 1 | 3 | -15 | 5 | i | -19 | -8
Cc1cc(C)cc(NC(=O)CSc2nnc(-c3cc(C)[nH]n3)n2N)c1 | -18 | 1 | 7 | 8 | -3 | i | 7 | -14
NC(=S)NNc1cccc2cccnc12 | -24 | -3 | 3 | 10 | u | i | u | x
Cn1c(SCc2cccc(Cl)c2)nc(C(F)(F)F)cc1=O | 5 | -1 | -14 | x | -3 | i | -4 | 33
CCCCN1CC(=O)N2[C@H]3c4ccc(OC)cc4OC[C@@H]3[C@H](c3ccccc3)[C@]2(C)C1=O | 2 | -12 | 7 | x | x | x | x | 1
CC(=O)OCC[n+]1c(C)n(-c2ccccc2)c2ccc(Cl)cc21 | -3 | -6 | 6 | 11 | 15 | i | -1 | -11
COc1ccc(-c2noc(CCC(=O)NCC3CCCO3)n2)cc1 (stereo unspecified) | x | -3 | 0 | -3 | -3 | i | 0 | -5
Cc1ccc(S(=O)(=O)NCCC(=O)OCc2ccc([N+](=O)[O-])cc2)cc1C | x | 0 | 1 | -14 | x | i | x | -3
COC(=O)c1ccc(C)c(NS(=O)(=O)c2ccc(C)c([N+](=O)[O-])c2)c1 | -7 | 0 | 1 | x | 2 | i | -2 | 15
Cc1ccc(C2=NN(C3=NN=C(N)Cc4ncnn43)C(O)(C(F)(F)F)C2)cc1 (stereo unspecified) | x | 3 | 6 | 5 | 4 | i | 7 | -12
O=C(c1ccco1)N1CCN(Cc2cc(=O)c(OCc3ccccc3Cl)co2)CC1 | 6 | 2 | 2 | -35 | x | i | x | -1
Cc1cccc(C)c1NC(=O)Nc1ccccc1-n1ccnc1 | x | 1 | 2 | 2 | 4 | i | -12 | -9
Cc1cccc(NC(=O)c2ccc([N+](=O)[O-])o2)n1 | -4 | 6 | -2 | -62 | 6 | i | -9 | 32
COc1ccc(S(=O)(=O)N2CCCCC2)cc1NC(=O)CCc1nc2ccccc2c(=O)[nH]1 | 20 | -3 | -6 | 17 | x | i | x | 0
Nc1nc(NCc2ccco2)nc(N2CCCCC2)c1[N+](=O)[O-] | 8 | -2 | -11 | 8 | 3 | i | 25 | -14
C(/C=C/C=C/Nc1ccccc1)=Nc1ccccc1 | x | 6 | 3 | -62 | 2 | i | 6 | -12
CCOC(=O)c1c(C)nc(-c2ccccc2)nc1NC(=O)CC | x | 0 | 2 | x | 5 | i | -10 | 4
Cc1ccc(COC(=O)c2cccc(S(=O)(=O)N3CCCCC3)c2)cc1 | -8 | -7 | -10 | 13 | x | x | x | x
COc1ccc(-c2cc3nc4c(c(=O)n3[nH]2)CCC4)cc1 | -15 | 6 | 1 | -52 | 17 | i | 4 | 14
Cc1cc(NC(=O)COC(=O)c2n[nH]c3ccccc23)no1 | -10 | -2 | 4 | 30 | -11 | i | -14 | -11
Cc1cc(C)c(S(=O)(=O)N2CCCC(C(=O)NCc3cccnc3)C2)c(C)c1 (stereo unspecified) | -2 | -2 | -6 | 29 | 2 | i | -19 | -8
O=c1c(-c2ccc(Cl)cc2)[n+]([O-])c2ccccc2n1OCc1ccccn1 | -22 | 4 | 3 | -96 | -2 | i | -11 | -9
Cc1ccnc2nc(C(=O)OCCOc3ccc(Cl)cc3)nn12 | x | -6 | 0 | 8 | u | i | -3 | -7
COc1ccc(N(CC(=O)NCc2ccccc2)S(=O)(=O)c2c(C)noc2C)cc1 | -9 | 6 | 3 | -22 | -9 | i | -2 | -20
Oc1ccccc1C1CC(c2cccs2)=NC(c2cccc(Br)c2)N1 (stereo unspecified) | -15 | -9 | -9 | 27 | -8 | i | -7 | u
Cc1ccsc1C(=O)N(Cc1nnc(-c2ccccc2Cl)o1)C1CC1 | -3 | 4 | -2 | -13 | x | i | x | -3
C/C(=N\N1C(=O)c2ccccc2NC1c1ccccc1)c1ccccc1O (stereo unspecified) | x | -3 | -5 | -56 | 14 | i | -3 | 3
CCc1cc2c(=O)c(-c3ccon3)c(N)oc2cc1OC | x | 1 | -7 | x | -5 | i | 0 | 1
Cc1cccc(N2CCN(C(=O)c3ccc4c(c3)CCN4S(C)(=O)=O)CC2)c1C | x | 7 | -4 | 8 | 1 | i | 4 | x

Record cards (already shown). Screens in order: Yeast UUG start, MT1-MMP act inh, MT1-MMP act inh RFP, Env fusion inh, PABP polyA inh, Rce1 inh, eIF4H FP inh, CSC inhib
NC(=S)NNc1cccc2cccnc12 as listed: -24, -3, 3, 10, u, i, u, x
N#Cc1nc(-c2cccs2)oc1NCCCN1CCOCC1 as listed: -16, 9, 3, x, -8, u, 3, -12
Cc1cccc(NC(=O)c2ccc([N+](=O)[O-])o2)n1 as listed: -4, 6, -2, -62, 6, i, -9, 32

Back to the main list with the 7 entries that preceded the break.
SMILES | Yeast UUG start | MT1-MMP act inh | MT1-MMP act inh RFP | Env fusion inh | PABP polyA inh | Rce1 inh | eIF4H FP inh | CSC inhib
Cc1ccnc2nc(C(=O)OCCOc3ccc(Cl)cc3)nn12 | x | -6 | 0 | 8 | u | i | -3 | -7
COc1ccc(N(CC(=O)NCc2ccccc2)S(=O)(=O)c2c(C)noc2C)cc1 | -9 | 6 | 3 | -22 | -9 | i | -2 | -20
Oc1ccccc1C1CC(c2cccs2)=NC(c2cccc(Br)c2)N1 (stereo unspecified) | -15 | -9 | -9 | 27 | -8 | i | -7 | u
Cc1ccsc1C(=O)N(Cc1nnc(-c2ccccc2Cl)o1)C1CC1 | -3 | 4 | -2 | -13 | x | i | x | -3
C/C(=N\N1C(=O)c2ccccc2NC1c1ccccc1)c1ccccc1O (stereo unspecified) | x | -3 | -5 | -56 | 14 | i | -3 | 3
CCc1cc2c(=O)c(-c3ccon3)c(N)oc2cc1OC | x | 1 | -7 | x | -5 | i | 0 | 1
Cc1cccc(N2CCN(C(=O)c3ccc4c(c3)CCN4S(C)(=O)=O)CC2)c1C | x | 7 | -4 | 8 | 1 | i | 4 | x
Cc1cc2c3c(c1C)C1(C(=O)N3C(C)(C)CC2C)C(C#N)=C(N)Oc2n[nH]c(C)c21 (stereo unspecified) | -18 | -5 | -2 | x | -12 | i | -9 | 3
Cn1c(CSc2ncn[nH]2)nc2ccccc21 | -21 | 1 | 0 | x | -10 | i | 2 | 9
COc1ccc2[nH]c(CN3CCN(C(C)C)C(CCO)C3)c(C)c2c1 (stereo unspecified) | -3 | 0 | -1 | 15 | 22 | i | 26 | 1
c1csc(-c2ccc(N3CCOCC3)nn2)c1 | -42 | 2 | 1 | -2 | 6 | i | 21 | 9
O=C(NC(=S)Nc1ccc(S(=O)(=O)Nc2nccs2)cc1)c1ccc(Br)o1 | x | -1 | 0 | 20 | -7 | x | 8 | 8
O=C(CCC1CCCCC1)NCc1ccncc1 | -17 | 2 | 4 | -61 | 0 | i | -5 | -19
COc1ccccc1C(=O)NC(=S)Nc1ccc(Cc2ccncc2)cc1 | -8 | -8 | -10 | -30 | 3 | i | -1 | 50
Cc1cc(C)cc(N(C(=O)CNC(=O)c2ccco2)C(C(=O)NC2CCCCC2)c2ccncc2)c1 (stereo unspecified) | -8 | -1 | 3 | 4 | -8 | i | -9 | x
CN(C)S(=O)(=O)c1ccc(Cl)c(NC(=O)CN2CCNC(=O)C2)c1 | x | -1 | 2 | 13 | -4 | i | -3 | -1
Nc1ccccc1C(=O)N=Nc1[nH]c(N)c2ccccc12 | x | 4 | 4 | -8 | -1 | i | 4 | -3
O=C(COC(=O)Cc1cn2ccsc2n1)NC12CC3CC(CC(C3)C1)C2 | -17 | -11 | 1 | 3 | -6 | i | 8 | -6
Fc1ccc(Cc2nnc(-c3cccs3)o2)cc1 | -13 | 1 | 2 | -32 | -11 | i | 6 | 16
CC(=O)Nc1cccc(OCc2ccc(S(=O)(=O)Cc3ccccc3)cc2)c1 | -19 | -4 | -4 | 1 | 13 | i | 8 | -5
O=C(O)c1c(C(=O)O)c(-c2ccc(Cl)c(Cl)c2)n2c1CSC2 | -4 | -1 | 6 | -23 | 15 | i | -1 | -10
O=C(Nc1ccccc1[N+](=O)[O-])c1cccc(N2C(=O)CCC2=O)c1 | -17 | -2 | -4 | -2 | 13 | i | -10 | -1

Source: PubChem BioAssay (several laboratories)
